Screening results: PubChem BioAssay, National Center for Advancing Translational Sciences (NCATS)
A488 fluor: A488 region autofluorescence; 59,000 tested, 0.1% active; compound autofluorescence, A488 spectral region, dye equivalency; stronger effect = higher value; max dye equivalency, M; AID 591; active = above 10 nM dye equivalent; inconclusive = 1 to 10 nM; inactive = 1 nM or less; about half of its hits are not listed in these tables;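 also: highest value over a series up to 38 µM; compound alone in buffer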
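Spectroscopic profiling in the A488 region: compounds in pH 8.0 Tris (100 mM), 15 min RT, CCD imaging with 480 nm excitation and 540 nm emission; responses normalized against A488 dye standards.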
A647 fluor: compound autofluorescence in A647 spectral region; max dye-equivalent concentration, M; Compound fluorescence, A647 channel (570/671 nm), Tris buffer; 59,000 tested, under 10 active; active means above 1 µM dye equivalent; inconclusive means 0.1 to 1 µM; inactive means 0.1 µM or less;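 also: values scaled relative to a standard on each plate; highest value over a series up to 38 µM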
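Compounds pinned into 100 mM Tris pH 8.0, 15 min at room temperature, then read with 570 nm excitation/671 nm emission filters. Fluorescence normalized to an on-plate six-point Alexa 647 standard curve, giving dye-equivalent concentration per compound concentration.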
TSHR ag: agonists of human thyroid stimulating hormone receptor | AID 926 | 73,000 tested, 0.48% active | HEK293-CNG-TSHR cells (CNG channel as cAMP sensor), membrane potential dye, cAMP | Potency, µM (highest dose often 57.1 µM), for the others: at the highest dose activation, hits mostly activators; active = well fitted activation curve of enough size with the parental cells flat; inconclusive = any curve in the parental cells; inactive = parental cells flat and receptor cells flat or falling; also: potency is read from the fitted curve at half-maximal effect; % of control where 0% means no effect; weak receptor curves with flat parental cells got no call and are not listed
Target sequence (P16473 whole entry, looked up): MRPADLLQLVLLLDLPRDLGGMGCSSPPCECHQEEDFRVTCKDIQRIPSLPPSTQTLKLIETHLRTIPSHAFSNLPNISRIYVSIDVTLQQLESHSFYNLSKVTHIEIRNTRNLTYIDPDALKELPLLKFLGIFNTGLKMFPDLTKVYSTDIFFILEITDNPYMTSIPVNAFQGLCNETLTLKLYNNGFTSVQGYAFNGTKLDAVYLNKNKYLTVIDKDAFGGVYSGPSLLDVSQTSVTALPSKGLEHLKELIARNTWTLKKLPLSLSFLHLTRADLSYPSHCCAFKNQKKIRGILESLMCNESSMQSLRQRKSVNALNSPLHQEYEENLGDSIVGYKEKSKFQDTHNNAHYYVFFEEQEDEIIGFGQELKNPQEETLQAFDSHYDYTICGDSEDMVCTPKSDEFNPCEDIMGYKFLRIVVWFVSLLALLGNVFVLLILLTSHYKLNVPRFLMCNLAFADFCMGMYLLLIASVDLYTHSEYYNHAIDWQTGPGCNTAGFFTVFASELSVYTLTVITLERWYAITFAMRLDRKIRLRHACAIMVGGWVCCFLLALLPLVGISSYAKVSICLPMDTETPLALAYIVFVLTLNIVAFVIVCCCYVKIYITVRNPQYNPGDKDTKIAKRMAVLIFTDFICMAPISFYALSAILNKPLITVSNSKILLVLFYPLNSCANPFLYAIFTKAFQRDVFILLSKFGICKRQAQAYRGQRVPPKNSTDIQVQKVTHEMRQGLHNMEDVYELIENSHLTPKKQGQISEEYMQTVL
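cAMP rise detected as CNG-channel membrane depolarization by fluorescent dye (emission 590 nm), 30 min after compound, following 60 min dye loading containing 100 uM RO 20-1724 at room temperature. Cells: TSHR/CNG HEK 293, with parental CNG HEK 293 as control.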
Resorufin autofl: compounds fluorescent in resorufin spectral region | Compound fluorescence, resorufin region 547/598 nm, buffer; stronger effect = higher value | max dye-equivalent concentration, M | 59,000 tested, 0.04% active; active = above 10 nM dye equivalent; inconclusive = 1 to 10 nM; inactive = 1 nM or less; a few of its hits are not listed in these tables; also: highest value over a series up to 38 µM
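Tris 100 mM pH 8.0; compound added, 15 min RT; CCD imager read, ex 547 nm/em 598 nm; signal normalized to resorufin standard curve (six concentrations per plate) as dye-equivalent concentration.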
AID923: qHTS Assay for Allosteric/Competitive Inhibitors of Caspase-1: Spectroscopic Profiling in AFC Spectral Region; 75,000 tested, 1.1% active; compound fluorescence, AFC spectral region (405/520 nm); almost no hit is shown here; Potency, µM (top dose mostly 57.5 µM), without a hit: top-dose fluorescence increase, usual class: activators; AID 923, 2007; active = well fitted activation curve with a large enough effect; inconclusive = small, poorly fitted or top-dose-only effect;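 also: potency is read from the fitted curve at half-maximal effect; 0% is about no effect; scaled to a free AFC standard on each plate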
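Baseline compound fluorescence (AFC region, 405 nm ex/520 nm em) taken from the intercept of kinetic reads with 50 nM caspase-1 and 5 uM Ac-WEHD-AFC; normalized to an on-plate AFC standard curve; compounds titrated up to 57 uM.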
Numbers without * were called inactive; i = inactive; ? = inconclusive; nt = no result given; [ ] = remark or other dose. These rows are one share of the data; the hit share may differ from the screen's.

SMILES | A488 fluor | A647 fluor | TSHR ag | Resorufin autofl | AID923
c1ccc(C2=Nn3c(nnc3-c3ccccn3)SC2)cc1 | i | 1.7e-08 | nt | i | nt
COCC(C)NCc1ccc(C)cc1C (stereo not drawn) | i | 2.3e-08 | -1% | i | 0.0%
COC(=O)C1C(=O)c2c([nH]c(C(=O)OCC3CCCO3)c2C)CC1C (stereo not drawn) | nt | nt | 7% | nt | 1.5%
CCN1CCCC1CNC(=O)COc1cc(=O)n(C)c2ccccc12 (stereo not drawn) | i | 1.7e-08 | -1% | i | -1.6%
O=C(COC(=O)CCC1CCCC1)Nc1ccc(Cl)cn1 | i | 2.2e-09 | 3% | i | -3.8%
CCc1c(C)nc2ncnn2c1NCCc1ccc(OC)c(OC)c1 | i | 6.3e-09 | 12% | i | 0.3%
COc1cc(C2N(c3ccc(F)cc3)C(=O)C3CCCN32)cc(OC)c1OC (stereo not drawn) | nt | nt | 22% | nt | 0.0%
CC(C)(C)C1=Nn2c(nnc2-c2ccccc2F)SC1 | i | 5.6e-09 | 6%[11.4 µM] | i | -1.8%
O=C(N[C@@H](Cc1ccccc1)C(=O)CCl)OCc1ccccc1 | i | 6.7e-08 | 18% | i | -3.0%
C=CCn1sc(N)c(C(=O)OCC)c1=S | i | 2.2e-08 | -7% | i | -1.2%
Cc1c(/C(O)=C2\C(=O)C(=O)N(CCCN(C)C)C2c2ccncc2)cnn1-c1ccccc1 (stereo not drawn) | i | 2.2e-08 | 11% | i | 0.3%
Fc1ccccc1/C=N/n1cnnc1 | i | 6.8e-08 | nt | i | nt
Cc1csc(SCC(=O)Nc2ccc(S(=O)(=O)N3CCCC3)cc2)n1 | i | 1e-09 | 2% | i | 1.9%
CCN(CC)c1ccc(C2CC(=O)Nc3cc(OC)c(OC)cc32)cc1 (stereo not drawn) | i | 4.3e-08 | -8% | i | -0.8%
COc1ccc(-c2cc(C(=O)N3CCN(C(c4ccccc4)c4ccccc4)CC3)no2)cc1OC | i | 1.5e-09 | ? | i | -0.3%
C[C@@](Cc1ccccc1)(NC(=O)CN)c1ccccc1 | nt | nt | 22% | nt | -2.4%
CC(=O)Nc1cccc(NC(=O)c2c(-c3c(Cl)cccc3Cl)noc2C)c1 | nt | nt | 2µM* | nt | 0.5%
CC(=O)c1ccc(OC(C)C)c(CN2CCCCC2)c1 | i | 1e-09 | 15% | i | 0.1%
CN1CCN(C(=O)C(Cc2ccccc2)NS(=O)(=O)c2ccc3c(c2)CCC(=O)N3)CC1 (stereo not drawn) | nt | nt | 7% | nt | 1.7%
CCCn1c(-c2ccc(F)cc2)nc2c(NCCN(CC)CC)nc(C)nc21 | nt | nt | ? | nt | -2.0%
CN(C)c1ccc(C(=O)OCC(=O)Nc2ccc(S(N)(=O)=O)cc2)cc1 | i | 1e-09 | 5% | i | -2.0%
CCC(CC)C(=O)Nc1nnc(-c2cccs2)s1 | i | 1e-09 | 5% | i | -1.2%
COc1cc(C)nc(N2CCC(C(N)=O)CC2)n1 | i | 1e-09 | -3% | i | 1.3%
C[C@@H]1/C=C\CC(=O)OC[C@H]2O[C@@H](C=C[C@@H]2O)[C@H](C)/C=C\CC(=O)OC1 | nt | nt | -2%[11.4 µM] | nt | -1.8%[11.5 µM]
CC(C)CNc1nc(N)[nH]c(=O)c1NC=O | i | 1e-09 | -3%[11.4 µM] | i | -1.4%[11.5 µM]
COc1ccc(N2CCN(C(c3nnnn3CCc3ccccc3)C(C)C)CC2)cc1 (stereo not drawn) | i | 1.6e-08 | 0%[11.4 µM] | i | -3.5%
Cc1cccn2c(=O)c3cc(C(=O)NCC4CCCO4)n(C)c3nc12 (stereo not drawn) | i | 8.9e-09 | 3% | i | 4.4%
CCCc1nnc(NC(=O)CCC(=O)N2CCCCCC2)s1 | i | 3.8e-08 | -1% | i | 0.1%
CN=C(Nc1cc(C)nn1-c1ccccc1)c1ccc(F)cc1 | i | 9.2e-09 | 23% | i | -2.0%
FC(F)(F)c1ccc(N2CCOCC2)c(NC2=NCCCCC2)c1 | i | 2.3e-09 | 3% | i | 0.2%
O=C(Cn1cc2c(n1)CCCCC2)NC1CCCCCC1 | nt | nt | 23% | nt | -3.0%
CC1(C)CC(=O)C(CCCN2C(=O)c3ccccc3C2=O)C(=O)C1 | i | 2.6e-08 | nt | i | nt
CC(=O)c1ccc2c3c(ccc(O)c13)CC2 | nt | nt | -19%[11.4 µM] | nt | 0.2%
CC(C)COC(=O)n1ccc(C(=O)N2CCCCC2)n1 | i | 2.7e-08 | 13% | i | -0.4%
CCOC(=O)CC1=CC(=O)Nc2ccccc2N1 | i | 7e-09 | 1% | i | -3.4%
N#Cc1nc(-c2ccco2)oc1N1CCOCC1 | i | 9.1e-09 | -1% | i | 4.4%
COc1ccccc1-c1cncnc1-n1ccnc1 | i | 1e-09 | -2% | i | -2.8%
COc1ccc2oc(C(=O)C3CC3)c(N)c2c1 | i | 2.3e-08 | -15% | i | 1.2%
O=C(O)COc1ccc2c(-c3ccccc3)cc(=O)oc2c1 | i | 1.5e-09 | -3% | i | 2.3%
Cc1cc(N2C(=O)C3C4c5ccccc5C(c5ccccc54)C3C2=O)no1 (stereo not drawn) | nt | nt | 6%[11.4 µM] | nt | 1.9%
COc1cccc(OC(=O)CSc2nnc(-c3ccccc3Br)o2)c1 | i | 1e-09 | 4% | i | 0.6%
Cc1nonc1NC(=O)N1CCCC1 | i | 4.7e-09 | 5% | i | -0.9%
Cc1cccc(NC(=O)c2oc3ccc(S(=O)(=O)N4CCOCC4)cc3c2C)c1C | i | 3.6e-08 | 12% | i | 0.9%
COc1ccc(OC)c(C(c2nnnn2CCC(C)C)N2CCN(C(=O)c3ccco3)CC2)c1 (stereo not drawn) | i | 8.6e-09 | ? | i | -1.5%
O=C(CSc1nnc(C23CC4CC(CC(C4)C2)C3)o1)Nc1ccc(N2CCOCC2)c(Cl)c1 | i | 1e-09 | 17% | i | 1.6%
CCS(=O)(=O)N1CCC(NC(C)=O)(c2ccccc2)CC1 | i | 8.3e-09 | -1% | i | 1.3%
O=S(=O)(c1ccc(Cl)cc1)N1CCN(C2CCCCCC2)CC1 | nt | nt | 7% | nt | -1.5%
O=C(OC1CCOC1=O)c1ccc2ccccc2n1 (stereo not drawn) | i | 5.8e-09 | 3% | i | 0.1%
CN1CCCC(C(=O)C(C#N)c2ccccc2)C1 (stereo not drawn) | i | 3.2e-08 | -1% | i | 3.9%
Cc1ccc2[nH]c(=O)c(CN(CCO)Cc3nnnn3CCc3ccccc3)cc2c1 | i | 1.2e-08 | 5% | i | 7.7%
Cc1ccc2cc(CNC(C)C)c(=O)[nH]c2c1 | i | 4.6e-08 | nt | i | nt
O=C(NCc1cccnc1)C(C(=O)c1ccc(F)cc1)n1ccccc1=O (stereo not drawn) | i | 4.5e-08 | 4% | i | -2.1%
CC(Oc1ccc(Cl)cc1Cl)c1nc(-c2ccc(NC(=O)c3cccnc3)cc2)no1 (stereo not drawn) | i | 1e-09 | 6% | i | 1.2%
C=CCn1c(=O)[nH]c2cc(C(=O)N3CCN(c4cccc(Cl)c4)CC3)ccc2c1=O | i | 1e-09 | 18% | i | -0.1%
CNS(=O)(=O)c1cccc(C(=O)OCC(=O)c2cc(C)n(-c3ccc4c(c3)OCO4)c2C)c1 | i | 9.6e-09 | nt | i | 1.5%
Cn1nnc2cc(C(=O)N3CCN(c4ccccc4)CC3)ccc21 | i | 2.1e-09 | -1% | i | -0.1%
CCOc1cc2[nH]c(=S)n(CC3CCCO3)c(=O)c2cc1OCC (stereo not drawn) | i | 3.2e-08 | -1% | i | -0.4%
Cn1c(Cn2c(=O)sc3ccccc32)nnc1SCC(=O)NC1CCCCC1 | nt | nt | ? | nt | -0.1%
c1ccc(CNC2=NCCC2)nc1 | i | 2.7e-09 | -2% | i | 0.8%
CN(c1ccccc1)c1nc(N2CCCC2)nc(-n2ccnc2)n1 | i | 6.5e-09 | ? | i | -1.1%
Next section.
SMILES | A488 fluor | A647 fluor | TSHR ag | Resorufin autofl | AID923
CC(C(=O)N1c2ccccc2Sc2ccccc21)n1nnc(-c2cccs2)n1 (stereo not drawn) | i | 2.4e-08 | ? | i | -0.7%
COc1ccc(N2CC(C(=O)NC3CC(C)(C)NC(C)(C)C3)CC2=O)cc1 (stereo not drawn) | nt | nt | 1% | nt | 1.8%
CCOc1ccc(C(=O)Nc2cc(OC)ccc2OC)cc1 | nt | nt | ? | nt | 0.6%
COCCn1c(=O)cnc2cnc(N3CCOCC3)nc21 | i | 1.6e-08 | ? | i | 11%
Cc1sc2nc(SCC(=O)N3CCN(CCO)CC3)n(-c3ccccc3)c(=O)c2c1C | nt | nt | 12% | nt | -0.8%
CN(CCO)c1ncnc2nc[nH]c12 | nt | nt | 4% | nt | 4.1%
c1ccc2scnc2c1 | nt | nt | 2% | nt | -1.2%
CC(=O)Nc1ccc(S(=O)(=O)N2CCN(c3ccc(C)c(Cl)c3)CC2)cc1 | nt | nt | -6% | nt | -2.0%
CC(=O)c1ccc(NC2CC(O)C(O)CO2)cc1 (stereo not drawn) | i | 1e-09 | -4% | i | 1.0%
O=C1NCC2=C1C(c1ccccc1)Nc1ccccc1N2 (stereo not drawn) | nt | nt | -1% | nt | -0.2%
COCCn1nnnc1C(c1ccc(OC)cc1)N1CCC(C)CC1 (stereo not drawn) | i | 1e-09 | 12% | i | 0.9%
CCn1nnnc1SCC(=O)NCc1cccs1 | i | 1e-09 | 6% | i | 1.6%
CCOC(=O)c1ccc(NC(=O)N2CCc3ccccc32)cc1 | i | 5e-09 | -1% | i | -0.4%
CCOC(=O)c1cnc2nc(C)[nH]n2c1=O | i | 3.7e-08 | -1% | i | -1.3%
Cc1cc(C)nc(Nc2nc(C)c3cc4c(cc3n2)OCO4)n1 | i | 7e-09 | 0% | i | 2.8%
c1ccc(-n2nc3c(ccc4cnnc43)[nH]2)cc1 | i | 1e-09 | -2% | i | -1.2%
CCN(CCCNC(=O)Cn1cc2c(n1)CCCC2)c1cccc(C)c1 | nt | nt | 21% | nt | -3.0%
O=C(O)C1=C(C(=O)N2CCN(C(=O)c3ccco3)CC2)CCCC1 | i | 1e-08 | 0% | i | 1.1%
Cc1cc(OCCOCCN(C)CCO)cc(C)c1Cl | nt | nt | 10% | nt | -0.2%
COc1ccccc1NC(=O)Oc1ccc(NC(=O)c2ccco2)cc1 | i | 1.7e-08 | -1% | i | -1.1%
COc1ccc(NC(=O)c2ccco2)cc1NC(=O)c1cc2ccccc2o1 | i | 1e-09 | ? | i | 0.2%
CCOc1ccccc1C1NC(=O)NC(C)=C1C(=O)OC1CCCC1C (stereo not drawn) | i | 1e-09 | ? | i | 0.2%
Cc1ccc(-n2ncc3c(=O)n(CC#N)cnc32)cc1C | i | 1e-09 | 4% | i | 0.3%
COC(=O)c1ccccc1NC(=O)Cn1c(=O)oc2ccc(Cl)cc21 | i | 1e-09 | 8% | i | 3.1%

Some of the entries above, reformatted.
Compound	A488 fluor	A647 fluor	TSHR ag	Resorufin autofl	AID923
Cc1cc(OCCOCCN(C)CCO)cc(C)c1Cl	nt	nt	10%	nt	-0.2%
COc1ccccc1NC(=O)Oc1ccc(NC(=O)c2ccco2)cc1	i	1.7e-08	-1%	i	-1.1%
COc1ccc(NC(=O)c2ccco2)cc1NC(=O)c1cc2ccccc2o1	i	1e-09	?	i	0.2%
CCOc1ccccc1C1NC(=O)NC(C)=C1C(=O)OC1CCCC1C (stereo not drawn)	i	1e-09	?	i	0.2%
Cc1ccc(-n2ncc3c(=O)n(CC#N)cnc32)cc1C	i	1e-09	4%	i	0.3%
